Source: PubChem BioAssay (ICCB-Longwood Screening Facility, Harvard Medical School)
PV pol inh: poliovirus RNA polymerase inhibition | hit rate 0.66% among 150,000 | P03300 | poliovirus polymerase elongation, fluorescence polarization; hits give low values | % elongation, % (compound at 16.7 µg/mL); in the data active = % elongation below about 90%; also: some results filed as inactive read as strong as hits
Target sequence (P03300 1749-2209 limits assumed): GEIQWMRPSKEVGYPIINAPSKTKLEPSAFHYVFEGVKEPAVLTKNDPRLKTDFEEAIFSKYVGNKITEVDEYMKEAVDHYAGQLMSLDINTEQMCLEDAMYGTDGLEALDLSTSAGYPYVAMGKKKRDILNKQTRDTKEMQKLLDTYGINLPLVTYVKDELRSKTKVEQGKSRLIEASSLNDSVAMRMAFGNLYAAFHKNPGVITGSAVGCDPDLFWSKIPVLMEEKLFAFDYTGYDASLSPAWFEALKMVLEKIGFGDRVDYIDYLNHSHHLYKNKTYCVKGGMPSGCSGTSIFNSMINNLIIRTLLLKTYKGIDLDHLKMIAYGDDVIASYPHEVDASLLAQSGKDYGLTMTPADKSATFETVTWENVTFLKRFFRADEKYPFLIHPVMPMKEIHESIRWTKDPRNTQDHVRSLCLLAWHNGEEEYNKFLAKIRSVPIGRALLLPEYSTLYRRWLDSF
PV pol inh intensity: also measured in PV pol inh; calls as there; % elongation; measured here: total intensity read-out; formula for this scale not given here;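 total fluorescence in place of polarization; lower means less elongation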
* hit, by the source's call. An excerpt (hit frequency here may not be typical).

#	mol	PV pol inh	PV pol inh intensity
1	C=Cc1ccc(Cn2c(=O)n(-c3cccc(Cl)c3)c(=O)c3c4c(sc32)CN(C(C)=O)CC4)cc1	101.0	105.0
2	Cc1ccc(NC(=O)c2cnc(SCC(=O)N3CCOCC3)n(C)c2=O)cc1C	109.0	115.0
3	COc1ccccc1N1CCN(c2ccc(-c3nc(-c4ccccc4C)no3)cc2[N+](=O)[O-])CC1	101.0	105.0
4	COCc1cc(C)nc2sc3c(=O)n(-c4ccccc4C(F)(F)F)nnc3c12	104.0	113.0
5	CC(=O)N1CC(=O)Nc2ccc(F)cc2C1c1ccccc1 (centres undefined)	102.0	105.0
6	COc1cccc(-c2cn3c(n2)sc2cc(C(=O)NC4CCCCC4)ccc23)c1	99.0	101.0
7	CCOc1ccc(OCC)c(NC(=O)C2CCN(c3cnccn3)CC2)c1	110.0	107.0
8	Cc1csc2nc(COc3ccc(NC(=O)c4ccccc4F)cc3)cc(=O)n12	107.0	109.0
9	COc1ccccc1N1CCN(S(=O)(=O)c2c(C)nc3sccn3c2=O)CC1	106.0	106.0
10	COc1cccc(NC(=O)Nc2cc(-c3cn4cccnc4n3)ccc2C)c1	106.0	111.0
11	Cc1cc(C)c2nc(NC(=O)c3ccc(S(=O)(=O)N4CCCC4)cc3)sc2c1	104.0	108.0
12	O=c1n(Cc2ccc(F)cc2)c2ccccc2c2nc(-c3ccccc3)nn12	109.0	110.0
13	Cc1ccc2nc(-c3ccc(Cl)c(NC(=O)c4ccc(Br)o4)c3)oc2c1	107.0	112.0
14	COc1ccc(C2C(=O)N(C3CCCCCC3)CC(=O)N2Cc2ccc(C)cc2)cc1 (centres undefined)	111.0	112.0
15	Cc1cccc(CNC(=O)c2oc3c(c2C)-c2nn(Cc4cccc(Cl)c4)cc2CC3)c1	112.0	103.0
16	O=C(CCSCc1ccccc1F)N1CCN(c2ccc(Cl)cc2)CC1	110.0	112.0
17	Cc1c(CNC2CCCCC2)c(C(=O)O)c(C)n1Cc1c(F)cccc1Cl	102.0	109.0
18	CCc1ccc(NC(=O)C(=O)NCCc2sc(-c3ccc(C)cc3)nc2C)cc1	105.0	105.0
19	COc1ccc(NC(=O)CSc2nnc(-c3cccs3)o2)cc1	103.0	108.0
20	Cc1ccc(OCc2nc3ccccc3n2Cc2ccccc2Cl)cc1	108.0	108.0
21	Cc1ccc(CN2CCc3nc(N4CCN(c5ccccc5F)CC4)ncc3C2)s1	105.0	99.0
22	CCCCC(=O)N1c2ccccc2C(C)(c2ccccc2)CC1(C)C (centres undefined)	106.0	106.0
23	CCCn1c(CCC(=O)Nc2cccc(C)c2C)nc2cccnc21	110.0	119.0
24	Cc1c(-c2ccccc2)c(=O)oc2c(CN3CCCC3)c(O)ccc12	100.0	98.0
25	COc1cc(Cl)c(C)cc1NC(=O)Cn1c(C)c2cnn(-c3ccccc3)c(=O)c2c1C	108.0	112.0
26	CCc1nnc2c(Nc3ccccc3Br)nc3ccccc3n12	105.0	111.0
27	CCC1CN(C(=O)N2CCC(C(=O)NCCc3ccc(OC)c(OC)c3)CC2)c2ccccc2O1 (centres undefined)	102.0	96.0
28	Cc1cccc(OCC(=O)N2CCN(CCc3ccccn3)CC2)c1	109.0	106.0
29	C#CCSc1nc2sc3c(c2c(=O)n1-c1cccc(OC)c1)CCN(C(C)=O)C3	100.0	105.0
30	Cc1cccc(NC(=O)CSc2nc(=O)n(Cc3ccco3)c3c2CCC3)c1C	108.0	106.0
31	Cc1nc2nc(NC(=O)C(C)C)[nH]n2c(=O)c1Cc1ccccc1	101.0	99.0
32	COc1ccc(Cc2nc3ccc(C(=O)NCCc4ccc(OC)c(OC)c4)cc3o2)cc1	109.0	107.0
33	O=C(NC1CC(=O)N(c2cccc(F)c2)C1)c1ccc2c(c1)OCO2 (centres undefined)	110.0	111.0
34	CCOc1ccc(/C=C/c2nc(C#N)c(Nc3ccc(OCC)cc3)o2)cc1	113.0	118.0
35	COc1ccc(NC(=O)C(c2ccc(C)cc2)N(C)C(=O)/C=C\c2ccc3c(c2)OCO3)cc1 (centres undefined)	104.0	102.0
36	CCc1ccc(C(=O)c2cn(CC(=O)Nc3cccc(OC)c3)c3ccc(OC)cc3c2=O)cc1	109.0	109.0

Single entries from the list:
no. 32 | PV pol inh intensity = 107.0
no. 33 | PV pol inh = 110.0
no. 35 | PV pol inh = 104.0
no. 25 | PV pol inh = 108.0

Full records as entered above. Order of screens: PV pol inh	PV pol inh intensity
COc1ccc(NC(=O)C(c2ccc(C)cc2)N(C)C(=O)/C=C\c2ccc3c(c2)OCO3)cc1 (centres undefined) is listed with 104.0	102.0
CCc1ccc(C(=O)c2cn(CC(=O)Nc3cccc(OC)c3)c3ccc(OC)cc3c2=O)cc1 is listed with 109.0	109.0
CCOc1ccc(/C=C/c2nc(C#N)c(Nc3ccc(OCC)cc3)o2)cc1 is listed with 113.0	118.0

Going on with the list:
#	mol	PV pol inh	PV pol inh intensity
37	CC(=O)Nc1ccc(S(=O)(=O)NCCS(=O)(=O)N2CCN(c3ccccc3F)CC2)cc1	109.0	115.0
38	COc1cc(C(=O)NCC(c2ccc(N(C)C)cc2)N2CCc3ccccc32)cc(OC)c1OC (centres undefined)	99.0	107.0
39	O=C(Cn1nc(-c2ccc(Cl)cc2)ccc1=O)NCCc1ccccc1	117.0	114.0
40	COc1cccc(-n2cc(C(=O)NCCc3cccc(C)c3)c3ccccc3c2=O)c1	101.0	106.0
41	COc1ccc(N2CCN(S(=O)(=O)c3ccc4c(c3)C(C(C)C)C(=O)N4)CC2)cc1 (centres undefined)	103.0	105.0
42	Cc1ccc(C)c(CN2C(=O)CSc3ccc(C(=O)NCc4ccccc4)cc32)c1	105.0	104.0
43	Cc1ccc(Cl)cc1NC(=O)C1CCN(S(=O)(=O)c2cccc3nonc23)CC1	109.0	113.0
44	CCCCOc1ccc(OC(=O)c2sc3ncn(Cc4cccc(F)c4)c(=O)c3c2C)cc1	107.0	110.0
45	COc1cccc(NC(=O)C2CCCN(S(=O)(=O)c3cccc4nonc34)C2)c1 (centres undefined)	102.0	103.0
46	CCc1ccc(NC(=O)CN2C(=O)c3ccccc3Sc3ccc(C(=O)N4CCCC4)cc32)cc1	105.0	106.0
47	CCOc1ccc(/C=C/c2nc(C#N)c(N3CCC(C)CC3)o2)cc1	110.0	95.0
48	Cc1ccc(CNS(=O)(=O)c2cc3c(cc2C)N(C)CCO3)cc1	104.0	111.0

Results in sequence from the list:
Compounds 41 to 47 in PV pol inh intensity, in turn: 105.0, 104.0, 113.0, 110.0, 103.0, 106.0, 95.0
Compounds 41 to 47 in PV pol inh, in turn: 103.0, 105.0, 109.0, 107.0, 102.0, 105.0, 110.0

Following part:
#	mol	PV pol inh	PV pol inh intensity
49	COc1ccccc1CCNC(=O)C(=O)NCC(c1cccs1)S(=O)(=O)c1cccs1 (centres undefined)	104.0	111.0
50	COc1ccc(CCNS(=O)(=O)c2ccc(N3CCCCS3(=O)=O)cc2)cc1OC	107.0	102.0
51	Fc1ccc(C(c2nnc(-c3ccccc3)o2)N2CCN(c3cccc(Cl)c3)CC2)cc1 (centres undefined)	110.0	117.0
52	Cc1ccccc1C(=O)NCCc1sc(-c2ccc(Cl)cc2)nc1C	108.0	106.0
53	CCc1cccc(C)c1NC(=O)Cn1cc2c(n1)CCCC2	109.0	111.0
54	CCOc1ccc(CCNC(=O)C2CCCN(c3nnc(C)c4c(C)n(-c5ccccc5)nc34)C2)cc1 (centres undefined)	107.0	111.0
55	COc1cc(C2C(=O)N(C3CCCCC3)CC(=O)N2C2CCCCC2)ccc1OC(C)C (centres undefined)	105.0	111.0
56	CCOC(=O)c1c(NC(=O)CCCOc2ccc(Cl)cc2)sc2c1CCC2	101.0	103.0
57	COc1cccc(C(=O)Nc2ccc3nc(SCC(=O)N4CCc5ccccc54)sc3c2)c1	107.0	112.0
58	COc1ccc(CCC(=O)NCCc2csc(-c3ccc(F)cc3)n2)cc1	102.0	111.0
59	CCCc1nn2c(=O)cc(COC(=O)c3ccc(NC(=O)c4cccs4)cc3)nc2s1	101.0	105.0
60	CCc1ccc(CNC(=O)Cn2nc(C)n3c(cc4cc(C)ccc43)c2=O)cc1	108.0	111.0

Part of the list above in order of length of the SMILES, smallest number first:
#	mol	PV pol inh	PV pol inh intensity
53	CCc1cccc(C)c1NC(=O)Cn1cc2c(n1)CCCC2	109.0	111.0
52	Cc1ccccc1C(=O)NCCc1sc(-c2ccc(Cl)cc2)nc1C	108.0	106.0
50	COc1ccc(CCNS(=O)(=O)c2ccc(N3CCCCS3(=O)=O)cc2)cc1OC	107.0	102.0
49	COc1ccccc1CCNC(=O)C(=O)NCC(c1cccs1)S(=O)(=O)c1cccs1 (centres undefined)	104.0	111.0
57	COc1cccc(C(=O)Nc2ccc3nc(SCC(=O)N4CCc5ccccc54)sc3c2)c1	107.0	112.0

(listing goes on)
#	mol	PV pol inh	PV pol inh intensity
61	COc1ccc(-c2cc(C)no2)cc1S(=O)(=O)Nc1c(C)cc(C)cc1C	104.0	109.0
62	CCOC(=O)N1CCN(C(=O)CN(c2ccccc2F)S(=O)(=O)c2ccc(C)cc2)CC1	106.0	104.0
63	CC(C)C(=O)c1cc2c(cc1NC(=O)c1ccccc1F)OCCO2	107.0	112.0
64	CSc1ncc(Cl)c(C(=O)N(Cc2ccc(N(C)C)cc2)Cc2ccco2)n1	120.0	115.0
65	O=S(=O)(c1ccc(-c2cc(C(F)(F)F)on2)s1)N1CCN(c2ccccc2)CC1	108.0	111.0
66	O=C(Nc1ccc2oc(-c3cccnc3)nc2c1)c1ccc(-c2cccc(OC(F)(F)F)c2)o1	105.0	101.0
67	CCc1ccc(-c2nn(-c3ccc(OC)cc3)c3c2cnc2ccc(OC)cc23)cc1	106.0	105.0
68	COc1cc(NC(=O)CCN2CCN(c3ccccc3)CC2)cc(OC)c1	105.0	100.0
69	CC(C)CN(CC(C)C)c1nnc(NC(=O)Nc2cccc(C(F)(F)F)c2)s1	107.0	112.0
70	COc1ccc(-n2nc(C(=O)N(C)c3cc(Cl)ccc3OC)c3c4ccccc4n(C)c3c2=O)cc1	110.0	108.0
71	CN(C)c1ccc(C(CNS(=O)(=O)c2ccc(F)cc2F)N2CCOCC2)cc1 (centres undefined)	106.0	107.0
72	Cc1ccc(C)c(CN2C(=O)c3ccccc3S(=O)(=O)c3ccc(C(=O)N(C)C4CCCCC4)cc32)c1	101.0	105.0
73	CCCCNC(=O)c1ccc2c(=O)n(Cc3ccc(OC)cc3)c(=O)[nH]c2c1	106.0	108.0
74	CCOC(=O)c1nc(Nc2ccccc2C)c2ccccc2n1	103.0	103.0
75	O=C(OCC1CCCO1)c1ccc2c(c1)N(Cc1ccccc1)C(=O)c1ccccc1S2(=O)=O (centres undefined)	107.0	111.0
76	Cc1ccc(/C=C/c2onc(C)c2S(=O)(=O)N2CCC(C(=O)NCc3ccc(N(C)C)cc3)CC2)cc1	102.0	105.0
77	COc1ccc(C(=O)Nc2nc3nc(C)c(Cl)c(=O)n3[nH]2)cc1	108.0	111.0
78	O=C(Nc1cc2c(cc1C(=O)c1ccccc1)OCCO2)c1ccc(Br)cc1	101.0	103.0
79	COCCCNS(=O)(=O)c1ccc(N2CCCCS2(=O)=O)cc1	108.0	108.0
80	CC(=O)c1cccc(NC(=O)C2CCCN(c3nnc(-n4cccc4)s3)C2)c1 (centres undefined)	111.0	114.0
81	O=C(CCc1ccccc1)N(Cc1cccnc1)c1nc2c(F)cc(F)cc2s1	103.0	100.0
82	CCc1ccccc1NC(=O)CN(c1ccccc1OC)S(=O)(=O)c1ccc(C)cc1	105.0	106.0
83	CCC(NC(=O)Nc1cccc(C)c1)c1c(-n2cccc2)sc2c1CCN(C)C2 (centres undefined)	109.0	110.0
84	Cc1ccc(NC(=O)CSc2nc(=O)n(Cc3ccco3)c3c2CCC3)cc1F	76.0*	71.0*
85	CC(C)c1cc(C(=O)NC(C)c2ccccc2)no1 (centres undefined)	109.0	111.0
86	COc1ccc(Br)cc1CNC(=O)CCSCc1ccc(Cl)cc1	114.0	116.0
87	COc1cccc(NC(=O)c2ccc3nc(Cc4ccccc4)oc3c2)c1	103.0	105.0
88	Cc1c(C(=O)NCc2ccc(Cl)cc2)sc2nc3n(c(=O)c12)CCCC3	112.0	99.0
